# High-throughput results as filed in PubChem BioAssay.
# HNF4A DNA FP: change in binding of human HNF4 alpha to DNA | P41235 | HNF4a-FITC DNA binding, fluorescence polarization, 1 h | activity change, % at 10 µM | 360,000 compounds, 0.3% hits | AID 1224865; in the data active = activity change above about 30%, passing the limit was not always enough;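 also: controls were the assay level and a saturating level of protein; the project sought stronger binding though the title names inhibitors; some compounds called inactive have numbers as strong as hits; positive values seem to mean higher polarization but the record does not say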
# FGF22 binding: FGF22 (human) thermal shift binding | Q9HCT0 | recombinant FGF22 thermal shift, SYPRO orange fluorescence; percent of sucrose octasulfate shift, DMSO zero | calls only at 9.99 µM | 340,000 compounds, 1.5% hits | AID 651658;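 active = melting point raised past a set limit in the mean and every replicate; inconclusive = no clear call; three in four hits are not shown here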
# Target sequence (Q9HCT0 whole entry, looked up): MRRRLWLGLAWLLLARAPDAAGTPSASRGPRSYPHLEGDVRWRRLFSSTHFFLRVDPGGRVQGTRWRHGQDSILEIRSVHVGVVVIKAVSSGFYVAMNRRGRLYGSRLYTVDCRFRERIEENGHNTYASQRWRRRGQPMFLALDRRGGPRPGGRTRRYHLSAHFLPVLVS
# ALR H2O2 inh: inhibitors of human sulfhydryl oxidase ALR. purified ALR, DTT oxidation, H2O2 HRP-luminol luminescence. AID 485317. inhibition, % (no concentration beside the values). 290,000 compounds, 3.8% hits. P55789;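 active = mean and each replicate at 75% or more; inconclusive = only one of the two met; inactive = neither met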;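 also: stock transfer was 7.5 nL into about 7.5 µL; 0% = neutral wells and 100% = wells with inactivated enzyme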
# Target sequence (P55789 whole entry, looked up): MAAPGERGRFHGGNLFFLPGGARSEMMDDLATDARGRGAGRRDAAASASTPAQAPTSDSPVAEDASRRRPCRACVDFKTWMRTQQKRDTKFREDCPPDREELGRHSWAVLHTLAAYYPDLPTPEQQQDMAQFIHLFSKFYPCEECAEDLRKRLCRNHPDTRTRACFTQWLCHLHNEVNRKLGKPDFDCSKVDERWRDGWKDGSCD
# MLL AF4-AF9 inh: blocks AF4 peptide binding to human AF9; P42568; 350,000 compounds, 0.47% hits; AlphaScreen, biotin-AF4 peptide binding to FLAG-AF9; inhibition, % at 10 µM; AID 651704;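 active = every replicate reaching a set inhibition limit, whatever the replicate mean, cut at about 25% in these data; inconclusive = mean inhibition reaches that limit but some replicates miss it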;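 also: 0% = plate neutral control median and 100% = total signal loss; the record names both 10 and 1 µM as test concentration; the first replicate is given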
# Target sequence (P42568 whole entry, looked up): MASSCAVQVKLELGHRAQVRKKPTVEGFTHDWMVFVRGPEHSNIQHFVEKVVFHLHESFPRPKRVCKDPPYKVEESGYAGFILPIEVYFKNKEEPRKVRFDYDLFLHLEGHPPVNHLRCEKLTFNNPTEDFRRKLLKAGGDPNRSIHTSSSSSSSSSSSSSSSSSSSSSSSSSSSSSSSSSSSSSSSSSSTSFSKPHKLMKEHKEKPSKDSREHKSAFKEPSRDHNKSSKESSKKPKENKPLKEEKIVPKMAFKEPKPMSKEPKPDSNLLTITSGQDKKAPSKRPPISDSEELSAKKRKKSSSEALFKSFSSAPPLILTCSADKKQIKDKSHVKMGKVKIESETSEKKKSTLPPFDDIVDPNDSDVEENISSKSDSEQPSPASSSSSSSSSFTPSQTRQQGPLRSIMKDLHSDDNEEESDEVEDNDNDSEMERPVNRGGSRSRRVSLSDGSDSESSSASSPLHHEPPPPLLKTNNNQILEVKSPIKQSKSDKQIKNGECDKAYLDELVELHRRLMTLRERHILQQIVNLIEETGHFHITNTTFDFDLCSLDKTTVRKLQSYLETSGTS
# Ecoli growth: inhibitors of Escherichia coli growth; 330,000 compounds, 0.21% hits; OD600, 23 h; hits give low values; OD600 absorbance (concentration not given with the values); AID 1053175;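 active = OD600 absorbance below the run mean of sample wells minus 3.6 SD, in any replicate, cut at about 0.56 in these data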;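 also: stock transfer was 300 nL into about 60 µL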
# Vif A3G: inhibitors of Vif binding to APOBEC3G peptide, primary screen, biochemical, TR-FRET, GST-Vif 1-94, biotin-A3G peptide, dose response retest (AID 1117319); one-dose inhibition, %; IC50 in µM for titrated hits; 260,000 compounds, 0.57% hits; TR-FRET GST-Vif / biotin-A3G peptide binding; higher % means a stronger effect; test concentration not given here; strong numbers were not always called active;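 active = above the screen mean plus three standard deviations and confirmed in dose response; inconclusive = results disagree or hit not tested in dose response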;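 also: Vif residues 1-94 fused to GST binding biotinylated APOBEC3G peptide 110-148; 0% = full assay without inhibitor and 100% = GST in place of GST-Vif; retest series ran down from 100 µM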
# rRNA inh HTS: inhibits bacterial ribosomal RNA function over humanized ribosomes | AID 720706 | E. coli WT GFP vs humanized-ribosome RFP mutants, fluorescence, 24 h; hits give low values; DMSO median 0, no signal -100 | GFP signal change (wild-type ribosome), % (test concentration not listed) | 350,000 compounds, 1.6% hits;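 active = significant combined selectivity score with lowered wild-type GFP, culture density cut under 30%, mutant RFP and density less affected; inactive = any of these conditions unmet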; also: one replicate is shown; some compounds called inactive have numbers as strong as hits
# rRNA inh HTS OD600: also measured in rRNA inh HTS; calls as there; OD600 change, %; measured here: OD600 growth;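 optical density of the mix in the first replicate; 0 = DMSO median and -100 = no signal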
# rRNA inh HTS RFP: also measured in rRNA inh HTS; calls as there; RFP signal change, %; measured here: RFP humanized mutant strains;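 first replicate; 0 = DMSO median and -100 = no signal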
# * hit, by the source's call; i = inactive; ? = inconclusive; . = no result given; & = joins results of further samples. Some of the compounds tested; the hit share may differ from the screen's.
nr | SMILES | HNF4A DNA FP | FGF22 binding | ALR H2O2 inh | MLL AF4-AF9 inh | Ecoli growth | Vif A3G | rRNA inh HTS | rRNA inh HTS OD600 | rRNA inh HTS RFP
1 | Cc1cccc(OCCC(=O)NCC(=O)Nc2cccc(C)c2C)c1 | 1.6 | i | 6 | -7.8 | 0.72 | 1% | 4 | 1 | -4.2
2 | O=C(Cc1ccccc1F)N1CCN(S(=O)(=O)c2ccc(Cl)cc2)CC1 | -0.4 | i | . | -0.3 | 0.68 | 1% | 7 | 8 | -1.5
3 | CCOc1cc(/C=N/Nc2ncc(C)c(=O)[nH]2)ccc1O | 3.0 | i | 100* | -1.8 | . | -2% | -5 | 4 | -2.3
4 | Cn1c(=O)c2c(nc(NC3CCCCC3)n2CC(=O)C23CC4CC(CC(C4)C2)C3)n(C)c1=O | 1.1 | . | 5 | . | 0.71 | 4% | . | . | .
5 | O=C(NCC[C@@H]1CC[C@@H](NS(=O)(=O)c2ccc(Oc3ccccc3)cc2)[C@H](CO)O1)C1CC1 | . | i | . | -1.6 | . | . | -1 | -13 | 3.9
6 | COc1cc2c(cc1OC)C(C)N(C(=O)c1cccc([N+](=O)[O-])c1)CC2 (stereo not drawn) | -3.9 | i | -3 | 0.9 | 0.66 | . | 17 | 6 | -0.9
7 | COc1cccc(NC(=O)c2ccc(NC(=O)C3CC(=O)OC34CCCCC4)cc2)c1 (stereo not drawn) | -3.6 | i | . | -0.5 | 0.68 | 4% | -2 | -9 | 0.6
8 | CCCCNS(=O)(=O)c1ccc(S(=O)(=O)NCc2ccncc2)cc1 | -2.4 | i | -9 | 4.3 | 0.68 | 2% | 17 | -6 | 2.4
9 | O=C(c1cccc(F)c1)N1CCCCN2[C@@H](CO)[C@H](c3ccc(/C=C/c4ccccc4)cc3)[C@@H]2C1 | . | i | . | 18 | . | . | -61 | -75 | -15
10 | O=C(C(=O)N1CCc2ccccc2C1)c1cn(CC(=O)N2CCCCC2)c2ccccc12 | -3.4 | i | -4 | -14 | 0.64 | . | -3 | -7 | 5.5
11 | COc1ccc(CN2CC(=O)N(c3cc(Cl)ccc3C)C2=S)cc1OC | 2.1 | i | 3 | 1.9 | 0.68 | 0% | 1 | 13 | 3.6
12 | Cn1c(N)c(C(=O)COC(=O)c2ccc([N+](=O)[O-])o2)c(=O)n(C)c1=O | -1.5 | i | . | -5.2 | 0.59 | 0% | -1 | -8 | -1.5

# Overlap with the part before: 6 entries; new compounds follow.
nr | SMILES | HNF4A DNA FP | FGF22 binding | ALR H2O2 inh | MLL AF4-AF9 inh | Ecoli growth | Vif A3G | rRNA inh HTS | rRNA inh HTS OD600 | rRNA inh HTS RFP
7 | COc1cccc(NC(=O)c2ccc(NC(=O)C3CC(=O)OC34CCCCC4)cc2)c1 (stereo not drawn) | -3.6 | i | . | -0.5 | 0.68 | 4% | -2 | -9 | 0.6
8 | CCCCNS(=O)(=O)c1ccc(S(=O)(=O)NCc2ccncc2)cc1 | -2.4 | i | -9 | 4.3 | 0.68 | 2% | 17 | -6 | 2.4
9 | O=C(c1cccc(F)c1)N1CCCCN2[C@@H](CO)[C@H](c3ccc(/C=C/c4ccccc4)cc3)[C@@H]2C1 | . | i | . | 18 | . | . | -61 | -75 | -15
10 | O=C(C(=O)N1CCc2ccccc2C1)c1cn(CC(=O)N2CCCCC2)c2ccccc12 | -3.4 | i | -4 | -14 | 0.64 | . | -3 | -7 | 5.5
11 | COc1ccc(CN2CC(=O)N(c3cc(Cl)ccc3C)C2=S)cc1OC | 2.1 | i | 3 | 1.9 | 0.68 | 0% | 1 | 13 | 3.6
12 | Cn1c(N)c(C(=O)COC(=O)c2ccc([N+](=O)[O-])o2)c(=O)n(C)c1=O | -1.5 | i | . | -5.2 | 0.59 | 0% | -1 | -8 | -1.5
13 | CCOc1cc(S(=O)(=O)NCCc2ccc(OC)c(OC)c2)c(OCC)cc1-n1cnnn1 | 6.3 | . | -6 | . | 0.76 | 0% | . | . | .
14 | CCOc1ccc(NS(=O)(=O)c2ccc(C(=O)NCC(c3ccco3)N3CCCCC3)cc2)cc1 (stereo not drawn) | -3.5 | i | . | 2.9 | . | 0% | 6 | -11 | 21
15 | Cc1cc(NC(=O)CN2C(=O)NC(C)(c3ccc(OC(F)F)cc3)C2=O)no1 (stereo not drawn) | -0.5 | . | -2 | . | 0.71 | -2% | . | . | .
16 | O=C(Nc1ccc2c(c1)OCO2)N[C@@H]1C=C[C@@H](CC(=O)N2CCN(c3ccccc3)CC2)O[C@@H]1CO | . | i | . | 3.7 | . | . | -2 | -3 | 2.4
17 | C[C@@H]1CN([C@H](C)CO)C(=O)c2cc(-c3cccnc3)cnc2O[C@H]1CN(C)C(=O)Nc1ccc(F)cc1 | . | i | . | 0.1 | . | . | -1 | 16 | -3.3
18 | O=C(NCCc1ccccc1)C1CCC(=O)N(Cc2ccc(Cl)cc2)C1 (stereo not drawn) | 0.5 | i | -1 | 1.1 | 0.69 | 5% | -5 | -4 | -0.3
19 | O=C(Cn1c(=O)oc2cc(S(=O)(=O)N3CCCCCC3)ccc21)NC1CCCCC1 | 0.3 | i | -3 | -0.9 | 0.74 | 1% | 5 | 13 | -1.4
20 | COc1ccc(C(c2nnnn2C(C)(C)C)N2CCN(c3nc4ccccc4s3)CC2)cc1 (stereo not drawn) | 4.7 | . | . | . | 0.8 | -5%&14% | . | . | .
21 | Clc1ccc(-c2cc(CSc3ccccc3)on2)cc1 | 1.5 | . | -11 | . | 0.77 | 4% | . | . | .
22 | CCCCCCNc1cc2n(c(=O)n1)CCc1cc(OC)c(OC)cc1-2 | 0.3 | . | -8 | . | 0.7 | 20% | . | . | .
23 | COc1ccc(NC(=O)N(C)C[C@@H]2OCCCC[C@H](C)Oc3ccc(NC(=O)c4ccccc4)cc3C(=O)N([C@H](C)CO)C[C@@H]2C)cc1 | . | i | . | -0.8 | . | . | -2 | -4 | -1.0
24 | N#Cc1ccccc1OCc1nnc(-c2ccccc2Br)o1 | 0.8 | i | . | 2.3 | 0.68 | . | -5 | -36 | -3.3

# (more compounds)
nr | SMILES | HNF4A DNA FP | FGF22 binding | ALR H2O2 inh | MLL AF4-AF9 inh | Ecoli growth | Vif A3G | rRNA inh HTS | rRNA inh HTS OD600 | rRNA inh HTS RFP
25 | CC(=O)N1[C@H](CO)[C@@H](c2ccccc2)[C@H]1CN(C)S(=O)(=O)c1ccccc1 | . | i | . | 0.7 | . | . | -2 | -6 | -2.6
26 | COc1ccc(NC(=O)N[C@@H]2CC[C@@H](CCNC(=O)CCN3CCCCC3)O[C@@H]2CO)cc1 | . | i | . | -1.3 | . | . | 2 | 4 | -0.5
27 | COc1ccc(S(=O)(=O)N2CCC(n3cnc4ccccc43)CC2)cc1 | 4.2 | . | 4 | -1.2 | 0.63 | . | -9 | -17 | 2.4
28 | O=C(CN1C(=O)/C(=C\c2ccccc2Br)Oc2ccccc21)NCCCN1CCOCC1 | -0.3 | i | -4 | 0.9 | 0.71 | . | 0 | -22 | 25
29 | CCC(C)N(C(=O)COc1ccc(NC(C)=O)cc1)C1CCS(=O)(=O)C1 (stereo not drawn) | 2.1 | i | -13 | -11 | 0.67 | -5% | -1 | 6 | -9.4
30 | CCOc1ccc(C(=O)CCC(=O)Nc2ncccc2O)cc1 | 11 | i | 6 | -0.6 | 0.68 | 12% | 0 | -4 | 1.5
31 | O=C(c1ccncc1)N1N=C2CCCCCC2C1(O)C(F)(F)F (stereo not drawn) | -1.3 | . | -3 | -2.6 | 0.67 | -11% | 10 | 8 | -2.2
32 | O=C(c1ccc(Br)cc1)N1CCC2(CC1)NCCc1[nH]cnc12 | -1.4 | i | -3 | 0.1 | 0.66 | ? | 3 | 2 | -0.1
33 | CCOc1cc(CNn2cnnc2)cc(Br)c1OCC(=O)NC1CCCCC1 | 3.2 | . | -4 | . | 0.7 | -1% | . | . | .
34 | CCCCN(CC)S(=O)(=O)c1ccc(C(=O)N(CCCN(C)C)c2nc3cc(C)cc(C)c3s2)cc1 | -1.2 | . | -27 | . | 0.66 | . | . | . | .
35 | COc1cc(C2C(C#N)=C(N)OC3=C2C(=O)CC(C)(C)C3)cc([N+](=O)[O-])c1O (stereo not drawn) | -4.5 | i | 47 | -0.4 | 0.69 | -5% | 6 | -6 | 6.6
36 | CN(C)C(=O)C[C@@H]1C[C@@H]2c3cc(NC(=O)c4cccnc4)ccc3O[C@@H]2[C@@H](CO)O1 | . | i | . | -0.3 | . | . | 2 | 0 | 0.7

# The results go on:
# The line under a structure holds: HNF4A DNA FP	FGF22 binding	ALR H2O2 inh	MLL AF4-AF9 inh	Ecoli growth	Vif A3G	rRNA inh HTS	rRNA inh HTS OD600	rRNA inh HTS RFP
37) C#CCNC(=O)C1=C[C@@H](C2CCCCC2)[C@H](CCCO)[C@@H](OCC)O1
    0.2	i	-5	.	.	-8%	3	12	0.5
38) Cc1ccccc1CS(=O)(=O)Cc1ccc(C(=O)NCc2ccco2)o1
    -1.4	.	-5	.	0.7	11%	.	.	.
39) C[C@H]1CN([C@@H](C)CO)C(=O)c2cccc(NC(=O)c3ccncc3)c2O[C@@H]1CN(C)Cc1ccc(-c2ccccc2)cc1
    .	i	.	9.3	.	.	-13	-24	2.9
40) CC(C)n1nnnc1C1c2ccccc2C(=O)N1Cc1ccc(F)cc1 (stereo not drawn)
    -1.8	i	.	0.4	.	.	3	5	0.5
41) CC12CCC(=O)N1C(C(=O)Nc1nc(-c3cc(F)ccc3F)cs1)CS2 (stereo not drawn)
    -1.8	.	-1	-0.7	0.72	7%	10	9	4.9
42) S=C(NCc1ccccc1)Nc1nccs1
    -1.7	i	18	1.2	.	2%	-46	-77	-9.9
43) COCc1c(C(=O)NCC2COc3ccccc3O2)oc2ccccc12 (stereo not drawn)
    2.2	i	-1	-3.5	0.67	-2%	-10	-39	-7.0
44) NNC(=O)c1ccc2ccccc2n1
    -1.4	i	.	1.9	0.7	1%	6	22	7.5
45) COc1ccc(C)cc1NC(=O)Nc1ccc2c(c1)CCC2
    0.4	i	-12	2.9	0.72	-4%	2	-3	-0.7
46) Cn1c(CNC2CCCCC2)nc2ccccc21
    -0.1	i	-14	0.4	0.7	3%	14	17	-0.7
47) C/C(=N\NC(=O)CSCc1ccccc1Cl)c1cc(O)ccc1O
    -0.9	i	98*	25*	.	10%	-26	-32	2.5
48) O=C(CN1CCCC1=O)NC1(C(F)(F)F)NC(=O)N(Cc2ccccc2)C1=O (stereo not drawn)
    -2.1	i	-8	-7.3	0.71	3%	7	10	-1.0
49) COc1ccccc1N(CC(=O)NC1CCCCC1)C(=O)c1csnn1
    3.3	.	.	.	0.7	-4%	.	.	.
50) COC(=O)[C@]12CCCCC=C1N(Cc1ccc(Cl)cc1Cl)C(=O)[C@H](CC(=O)N1CCSCC1)C2
    5.6	i	.	1.7	.	.	11	3	2.9
